Assay outcomes: PubChem BioAssay, Southern Research Institute
Mtb H37Rv – Mycobacterium tuberculosis H37Rv growth inhibition, putative kinase inhibitor library, confirmatory dose response (AID 2842). M. tuberculosis H37Rv growth inhibition; higher % means a stronger effect; some inactives read as strong as hits. one-dose inhibition, % at 10 µg/mL; IC90 in µg/mL for titrated hits. 24,000 compounds, 5.2% hits;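 active = confirmed in a dose series; inconclusive = mostly over 85% at the one dose but not retested; inactive = below 85% or not confirmed; about a fifth of its hits are not listed in these tables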;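 also: bacteria incubated one week before Alamar blue readout; 0% = bacteria only wells and 100% = bacteria with high antibiotic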
The depositor's hits bear a star; ? = inconclusive. A portion of the library; rates above refer to the full screens.

Compound	Mtb H37Rv
CCOC(=O)c1nn(-c2ccc(OC)cc2)c(=O)c2c(NC(=O)c3ccc(OCC)c(OCC)c3)scc12	5.9%
COc1ccc(-c2nnc3c4ccccc4n(Cc4ccccc4F)cc2-3)cc1OC	36.5%
O=C(CN1C(=O)c2ccccc2C1=O)Nc1nc2c(cc3c4c(cccc42)CC3)s1	-4.2%
NS(=O)(=O)c1ccc2nc(NC(=O)c3ccc(Cl)s3)sc2c1	5.2%
COc1ccc(OC)c2[nH]c(=O)c(CCNC(=O)c3ccc(Br)o3)cc12	22.5%
CCSc1ccccc1C(=O)Nc1c(C(N)=O)oc2ccccc12	0.2%
O=C(Nc1ccc2c(c1)C(=O)NC2=O)c1ccc(S(=O)(=O)N2CCCCC2)cc1	3.4%
Cc1cccc(N2C(=O)c3ccc(C(=O)OCC(=O)Nc4ccccc4C(F)(F)F)cc3C2=O)c1C	1.1%
CCOC(=O)N1CCN(C(=O)CSCC(=O)N=c2sc3cc(OC)ccc3n2C)CC1	-6.2%
COc1ccc(-c2nc3c(c(SCC(=O)Nc4c(C)cccc4C)n2)Cc2cccc(C)c2O3)cc1	-2.3%
O=C(CCc1ccccc1)Nc1cc2c3c(c1)CCC(=O)N3CCC2	7.0%
N#C/C(=C(/O)c1ccc([N+](=O)[O-])s1)c1nc2ccccc2[nH]1	-7.4%
CC1C(=O)N2CCCc3cc(NC(=O)C(=O)NC4CC4)cc1c32 (stereo not given)	-3.9%
CCOC(=O)c1sc2ncnc(Nc3ccc(F)cc3)c2c1C	-2.6%
Cc1cccn2c(=O)c3cc(S(=O)(=O)c4ccc(Cl)cc4)c(=N)n(Cc4ccncc4)c3nc12	-11.4%
COc1ccc(-n2c(Cc3cc(=O)[nH]c(=O)[nH]3)n[nH]c2=S)cc1	0.5%
Cc1ccc(-c2nnc(NC(=O)c3ccc(S(=O)(=O)N4CCCCC4)cc3)o2)c(C)c1	76.9%
CCOc1ccc2c(c1)c1nnc(-c3ccc(OC)cc3)c-1cn2Cc1ccc(C)cc1	27.9%
CSC1=C(C#N)C(c2ccccc2Cl)C(C(=O)Nc2ccc(Cl)cc2)=C(C)N1 (stereo not given)	79.7%
CCOC(=O)c1nn(-c2ccc(OC)cc2)c(=O)c2c(NC(=O)c3cccs3)scc12	-7.3%
CS(=O)(=O)c1ccc(CC(=O)Nc2sc3c(c2C(N)=O)CCCCC3)cc1	-1.4%
COC(=O)c1ccc(CSc2nc(-c3ccc([N+](=O)[O-])cc3)nc3c2c(=O)n(C)c(=O)n3C)o1	-6.0%
Cc1ccc(OCC(O)Cn2c(NCCC(C)C)nc3c2c(=O)[nH]c(=O)n3C)cc1C (stereo not given)	-13.8%
Cc1ccc(NC(=O)c2cnc(SCc3cccnc3)n(C)c2=O)cc1C	9.1%
C=CCOC(=O)C1=C(C)Nc2[nH]c(=O)[nH]c(=O)c2C1c1ccc(CC)cc1 (stereo not given)	8.2%
O=C(CSc1ccc2nnc(-c3cccc(F)c3)n2n1)Nc1ccc(C(F)(F)F)cc1	-1.2%
CNS(=O)(=O)c1cc(C)c2[nH]c(=O)cc(C)c2c1	-13.8%
CCOC(=O)c1sc(NC(=O)c2cccs2)nc1-c1ccccc1	-1.2%
COc1cc(/C=C/C(=O)Nc2nnc(-c3ccc(F)cc3)s2)cc(OC)c1OC	2.1%
COc1ccc(OCCn2c(=O)oc3ccc(C)cc32)cc1	24.5%
COc1ccc(-c2nnc3c4cc(C)ccc4n(Cc4ccc(C)cc4)cc2-3)cc1	17.4%
O=C(Cc1cccs1)Nc1nnc(SCC(=O)N2CCOCC2)s1	-12.3%
COc1cc(/C=N/n2c(C)cc(C)c(C#N)c2=O)ccc1OC(C)=O	-6.4%
Nc1cc(OC(=O)c2ccc(-c3ccccc3)cc2)nn1S(=O)(=O)c1ccc(Br)cc1	2.6%
CCOC(=O)c1nn(-c2ccccc2)c(=O)c2c(NC(=O)c3ccc4c(c3)OCO4)scc12	-11.5%
COc1ccc(C(=O)Nc2sc(Cc3ccc4c(c3)OCO4)c(C)c2C#N)cc1	2.0%
O=C(CSc1ccc2nnc(-c3cccs3)n2n1)NCc1ccccc1	14.9%
CN(Cc1ccccc1)S(=O)(=O)c1ccc(C(=O)Nc2nc3c(s2)CCCC3)cc1	1.8%
Cc1c(C(=O)Nc2ccccc2)sc2ncn(Cc3cccc4ccccc34)c(=O)c12	10.3%
Cc1ccccc1NC(=O)CSc1nnc(CCC(=O)O)c(=O)n1N	-10.2%
COc1ccc(-c2nnc3c4ccccc4n(Cc4ccc(C)cc4)cc2-3)cc1OC	81.8%
COc1ccccc1N1CCN(c2nc(Nc3ccc(C)c(C)c3)c3nccnc3n2)CC1	1.68µg/mL*
COc1ccc(-n2nnc3c(SCC(=O)NCCc4ccccc4)ncnc32)cc1	-4.4%
CCOc1cc(-c2nnc(NC(=O)C(C)(C)C)o2)cc(OCC)c1OCC	83.0%
CCC(=O)N1N=C(c2ccc(NS(=O)(=O)CC)cc2)CC1c1ccc(C)cc1 (stereo not given)	5.4%
c1ccc(CNc2ncnc3nc[nH]c23)cc1	6.9%
CN(C)c1ccc(NC(=O)c2cn(C)cc3c(=O)n(-c4ccccc4)nc2-3)cc1	2.1%
Cc1ccc(S(=O)(=O)/N=C/NS(=O)(=O)c2ccc(C)cc2)cc1	-15.4%
Cc1ccc(NC(=O)c2cnc(SCc3ccccn3)n(C)c2=O)cc1	-3.5%
CCNc1nc2c(c(=O)[nH]c(=O)n2C)n1CC(O)COc1ccc(C)c(C)c1 (stereo not given)	-12.7%
Cn1c(=O)c2c(SCC(=O)N3CCCCCC3)nc(-c3ccco3)nc2n(C)c1=O	0.6%
CCCN1C(=O)CC(Sc2ncccc2C(=O)O)C1=O (stereo not given)	17.8%
CCOc1ccc(-c2nnc3ccc(SC(C)C)nn23)cc1	31.7%
COc1cc(/C=C(\C#N)c2nc(-c3ccc(C)cc3)cs2)cc([N+](=O)[O-])c1O	3.26µg/mL*
Nc1ncnc(Oc2ccc([N+](=O)[O-])cc2)c1[N+](=O)[O-]	5.8%
COc1ccccc1-n1c(=O)[nH]c2c(C(N)=O)nc(-c3cc(OC)c(OC)c(OC)c3)nc21	48.1%
CCOc1cccc2c1Oc1[nH]c(-c3cc(OC)c(OC)c(OC)c3)nc(=S)c1C2	11.8%
CS(=O)(=O)c1ccc2nc(NC(=O)c3ccc(C(=O)c4ccccc4)cc3)sc2c1	-5.2%
Fc1ccc2nc(N3CCN(c4ccccc4)CC3)sc2c1	4.4%
CCN(C1CCS(=O)(=O)C1)S(=O)(=O)c1ccc([N+](=O)[O-])cc1 (stereo not given)	-5.2%

Some of the entries above in another layout.
COc1cc(/C=C(\C#N)c2nc(-c3ccc(C)cc3)cs2)cc([N+](=O)[O-])c1O
  Mtb H37Rv: 3.26µg/mL*

Nc1ncnc(Oc2ccc([N+](=O)[O-])cc2)c1[N+](=O)[O-]
  Mtb H37Rv: 5.8%

COc1ccccc1-n1c(=O)[nH]c2c(C(N)=O)nc(-c3cc(OC)c(OC)c(OC)c3)nc21
  Mtb H37Rv: 48.1%

CCOc1cccc2c1Oc1[nH]c(-c3cc(OC)c(OC)c(OC)c3)nc(=S)c1C2
  Mtb H37Rv: 11.8%

Following part
Compound	Mtb H37Rv
Cc1nc2ccccc2nc1SCC(=O)NC1CCS(=O)(=O)C1 (stereo not given)	-21.9%
O=C1NC(=O)c2cc(NC(=O)c3cc(-c4cccs4)nc4ccccc34)ccc21	38.1%
CCOC(=O)Cc1csc(NC(=O)COc2cccc3ccccc23)n1	-2.5%
CCOc1ccc(-c2nnc3c4cc5c(cc4n(Cc4cccc(OC)c4)cc2-3)OCCO5)cc1	3.52µg/mL*
CCCCN(C)S(=O)(=O)c1ccc(C(=O)Nc2nccs2)cc1	-9.6%
Cc1ccccc1N1CCN(C(=S)c2ccc(-c3ccc([N+](=O)[O-])cc3)o2)CC1	2.2%
CCN(c1ccccc1)S(=O)(=O)c1ccc(C(=O)Nc2cccc3c2C(=O)NC3=O)cc1	-6.3%
CCOC(=O)c1nn(-c2ccc(OC)cc2)c(=O)c2c(NC(=O)c3ccc([N+](=O)[O-])cc3)scc12	4.0%
O=C(Nc1nc2c(cc3c4c(cccc42)CC3)s1)c1cc2c(ccc3ccccc32)oc1=O	-6.3%
Cc1cc(C)c2sc(NNC(=O)c3cc(-c4cccs4)nc4ccccc34)nc2c1	25.6µg/mL*
Cc1ccc(Cn2c(SCc3ccc(Cl)cc3)nc3c2c(=O)[nH]c(=O)n3C)cc1	90.9%
O=C(CCN1C(=O)/C(=C\c2cccc3c2OCO3)SC1=S)Nc1ccc(O)cc1	-2.6%
COc1ccc(C2NCCc3cc(O)c(O)cc32)cc1OC (stereo not given)	-1.4%
COc1ccc(/C=C/C(=O)Nc2cccc(F)c2)c(OC)c1	17.2%
Cc1ccc(C(=O)Nc2c(N)nc(SCC(=O)Nc3ccc(Cl)cc3)[nH]c2=O)cc1	-5.6%
COc1ccc2nc(-c3ccc(OC)c(NC(=O)c4ccc(F)c(F)c4)c3)cn2n1	-6.3%
CCOc1ccc2nc(N3CCOCC3)sc2c1	3.3%
Cn1c(=O)[nH]c(=O)c2c1nc(N1CCN(CC(N)=O)CC1)n2Cc1ccc(Cl)c(Cl)c1	-12.2%
Cc1cc2c(=O)n(C)c(SCc3cc(=O)[nH][nH]3)nc2s1	-0.6%
COc1ccccc1-c1nnc(NC(=O)c2ccc3c(c2)CCCC3)o1	8.04µg/mL*
Cc1ccc(C)c(-c2nnc(NC(=O)c3ccc(S(=O)(=O)N(C)C)cc3)o2)c1	22.8%
NC(=O)c1ccc(NC(=O)C(=O)N2CCC3(CC2)OCCN3S(=O)(=O)c2cccs2)cc1	8.7%
O=C(O)CSc1ncnc2ccccc12	-22.1%
Cc1ccc(NC(=O)CN2C(=O)C3(SCC(=O)N3c3ccc(F)cc3)c3ccccc32)c(C)c1 (stereo not given)	7.7%
CCCCc1ccc(NS(=O)(=O)c2ccc(O)c(C(=O)O)c2)cc1	-21.8%
CC(=O)c1ccc(CC2SC(N)=NC2=O)cc1 (stereo not given)	-3.3%
COc1ccc(C(=O)NCCc2cc3c(OC)ccc(OC)c3[nH]c2=O)cc1	-5.0%
COc1ccc(C(=O)Nc2c(N)nc(SCC(=O)Nc3ccccc3)[nH]c2=O)cc1	1.9%
Cc1cc(NC(=O)c2ccc(Br)o2)nc2c1c(=O)oc1ccccc12	-2.0%
Fc1ccc(-n2ncc3c(Nc4ccc(OCc5ccccc5)cc4)ncnc32)cc1	2.9%
COc1ccc(Nc2nc(Nc3cccc(F)c3)nc3nccnc23)cc1	21.8%
COc1cccc(-n2c(SCC(=O)N3CCN(c4ccccc4)CC3)nc3c([nH]c4ccccc43)c2=O)c1	-5.0%
COc1cc(-c2nnc(NC(=O)c3ccno3)o2)cc(OC)c1OC	-7.5%
COc1ccccc1CNc1ncnc2nc[nH]c12	20.9%
CCOC(=O)c1cnc2ccc(OC)cc2c1Nc1cccc(OC)c1	78.2%
O=[N+]([O-])c1cccc(-c2ccc3nnc(SCc4ccccn4)n3n2)c1	-10.0%
Cc1nnc(NC(=O)COc2ccccc2)s1	4.3%
CCn1c2c(c(=O)[nH]c1=O)C(c1ccc(O)cc1)C1=C(CC(C)(C)CC1=O)N2 (stereo not given)	-10.5%
CC(C(=O)Nc1ncn[nH]1)N1C(=O)c2ccccc2C1=O (stereo not given)	-11.2%
C=CCn1c(=NC(=O)c2cc3c(ccc4ccccc43)oc2=O)sc2cc(S(N)(=O)=O)ccc21	1.9%
CCS(=O)(=O)c1ccc(CC(=O)Nc2nc(C)c(C(C)=O)s2)cc1	2.2%
O=C(Nc1nnc(-c2cc(Cl)ccc2Cl)o1)c1ccc(Br)cc1	75.9%
Cc1cc(C)c2nc(NNC(=O)c3ccccc3F)sc2c1	3.08µg/mL*
CCOC(=O)c1nn(-c2ccc(OC)cc2)c(=O)c2c(NC(=O)COc3ccc(Cl)cc3)scc12	11.1%
CCOC(=O)c1nn(-c2ccc(C)cc2)c(=O)c2c(NC(=O)c3ccc(S(=O)(=O)N(C)C)cc3)scc12	4.4%
O=C(NCc1ccccn1)c1cc2c(ccc3ccccc32)oc1=O	-0.3%
CS(=O)(=O)c1cccc(-c2nnc(NC(=O)c3cc4cc([N+](=O)[O-])ccc4s3)o2)c1	-1.4%
Cc1ccc(C(=O)Nc2sc3c(c2-c2nc4ccccc4s2)CCN(C(C)C)C3)c(C)c1	?
N#C/C(=C(/O)c1ccc(Oc2ccccc2)cc1)c1nc2ccccc2[nH]1	-3.8%
CCn1c(SCC(=O)Nc2cccc(F)c2)nc2c(c1=O)SC(C)C2 (stereo not given)	-3.3%
COc1cccc(Nc2nc3c(SC)cccc3s2)c1	71.5%
CCOc1ccc2c(c1)c1nnc(-c3ccc(F)cc3)c-1cn2Cc1ccccc1F	12.5%
CCN(CC)CCCN1C(=O)C(=O)/C(=C(/O)c2c(C)nc3ccccn23)C1c1ccncc1 (stereo not given)	-21.7%
O=C(c1ccc(Br)o1)N1CCN(c2ccc(N3CCCCC3)nn2)CC1	5.4%
O=C(Nc1nnc(-c2ccco2)o1)c1cccs1	3.12µg/mL*
